Screening results from PubChem BioAssay.
KCNQ2 pot: enhances the rat KCNQ2 potassium channel; B-score at 10 µM; 0.54% of 310,000 active; O88943; CHO-K1 KCNQ2, FluxOR thallium flux fluorescence; stronger effect = higher value;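 active means fluorescence ratio B-score at least 3 SD of library B-scores, with initial fluorescence B-score within 3 SD, cut at about 5.3 in these data; same plate scores as AID 2156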;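 further: B-score of peak minus minimum over baseline fluorescence ratio after K+ and Tl+ stimulus; positive B-score means potentiation of KCNQ2 with more thallium influx and brighter signal; only the inactives scoring about 0 or higher are listed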
Target sequence (O88943 whole entry, looked up): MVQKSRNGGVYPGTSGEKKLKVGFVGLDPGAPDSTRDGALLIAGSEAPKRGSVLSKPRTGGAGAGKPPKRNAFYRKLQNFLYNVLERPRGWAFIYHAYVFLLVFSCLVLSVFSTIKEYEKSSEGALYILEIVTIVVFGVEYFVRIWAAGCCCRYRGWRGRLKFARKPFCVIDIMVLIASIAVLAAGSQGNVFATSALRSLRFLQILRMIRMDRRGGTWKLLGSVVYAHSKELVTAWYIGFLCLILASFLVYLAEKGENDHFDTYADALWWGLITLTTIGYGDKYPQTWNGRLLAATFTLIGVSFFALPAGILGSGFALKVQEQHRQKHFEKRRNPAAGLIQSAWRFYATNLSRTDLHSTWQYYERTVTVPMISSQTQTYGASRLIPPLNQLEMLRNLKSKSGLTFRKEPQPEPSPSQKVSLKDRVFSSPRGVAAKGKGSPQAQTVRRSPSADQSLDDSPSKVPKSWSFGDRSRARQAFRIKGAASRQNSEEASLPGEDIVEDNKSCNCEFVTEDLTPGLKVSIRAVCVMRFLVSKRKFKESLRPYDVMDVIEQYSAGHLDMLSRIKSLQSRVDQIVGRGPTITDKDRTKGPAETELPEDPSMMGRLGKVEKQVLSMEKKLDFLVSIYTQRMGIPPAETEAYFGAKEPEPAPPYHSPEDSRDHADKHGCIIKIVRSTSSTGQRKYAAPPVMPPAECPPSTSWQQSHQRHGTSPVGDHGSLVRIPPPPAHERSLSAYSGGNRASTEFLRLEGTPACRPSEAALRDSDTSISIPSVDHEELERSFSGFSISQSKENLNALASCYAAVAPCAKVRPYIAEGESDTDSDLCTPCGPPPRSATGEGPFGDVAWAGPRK
KCNQ2 pot baseline: recorded beside KCNQ2 pot, whose call it bears; B-score; compound at 10 µM; measured here: initial fluorescence intensity artifact check;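 brightness before thallium and not channel activity; 0 = typical well and far values either way flag optical interference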
An asterisk follows results filed as active.

The first five records (preview)
SMILES	KCNQ2 pot	KCNQ2 pot baseline
CC(C)(C)N(NC(=O)Nc1ccc(F)cc1)C(=O)c1ccccc1	0.01	-0.7
COc1cc([N+](=O)[O-])ccc1NC(=O)/C=C\C(=O)O	0.07	1.46
O=[N+]([O-])c1cccc(/C=N/Nc2ccccn2)c1	0.04	-1.27
COC(=O)CCC(=O)c1oc2ccc(Br)cc2c1N	0.79	-0.9
CC1CCN(C(=O)Cn2ncc3c4ccccc4n(C)c3c2=O)CC1	4.6	0.01

This part in full, from the first entry:
SMILES	KCNQ2 pot	KCNQ2 pot baseline
CC(C)(C)N(NC(=O)Nc1ccc(F)cc1)C(=O)c1ccccc1	0.01	-0.7
COc1cc([N+](=O)[O-])ccc1NC(=O)/C=C\C(=O)O	0.07	1.46
O=[N+]([O-])c1cccc(/C=N/Nc2ccccn2)c1	0.04	-1.27
COC(=O)CCC(=O)c1oc2ccc(Br)cc2c1N	0.79	-0.9
CC1CCN(C(=O)Cn2ncc3c4ccccc4n(C)c3c2=O)CC1	4.6	0.01
CCCN=C(C)C1=C(O)c2ccccc2C1=O	2.1	0.03
Cc1c(N=Cc2ccco2)c(=O)n(-c2ccccc2)n1C	0.62	-0.15
O=C(C1=C[C@H](C2CC2)C[C@H](OCCCCO)O1)N1CCOCC1	0.21	-0.54
Cc1cc(C(=O)COC(=O)Cc2n[nH]c(=O)c3ccccc23)c(C)n1-c1ccc2c(c1)OCO2	1.46	2.95
O=C(Nc1ccc(Nc2ccccc2)cc1)c1ccccc1F	0.22	-0.21
COc1cccc(CNC(=O)c2ccc(C3SCCS3)cc2)c1	0.09	0.77
COC(=O)COc1c(/C=C\c2nc(O)c([N+](=O)[O-])c(=O)[nH]2)cccc1OC	1.03	0.66
Cc1cccc(NC(=S)c2nc3ccccc3s2)c1	0.75	1.57
CN1C(=O)NC(c2ccccc2)C2=C1CN(Cc1ccco1)C2=O (stereo not given)	0.11	-0.01
CC(C)CN1C(=O)c2ccc(NC(=O)Cc3ccccc3)cc2C1=O	0.94	0.63
COc1ccc([N+](=O)[O-])cc1N(CC(=O)NC1CCCC1)S(C)(=O)=O	0.01	0.84
Cc1nc(NC(=O)c2ccccc2)sc1-c1csc(NCc2ccco2)n1	0.15	-1.19
O=c1ccnc(SCn2nnc3ccccc3c2=O)[nH]1	0.37	0.78
O=c1[nH]c(SCc2ccc(F)cc2)nc2c1cnn2-c1ccc(F)cc1	2.08	-0.02
CCn1cc(CN2CCN(C)C(CCO)C2)c2ccccc21 (stereo not given)	0.1	1.69
CC1CCCCN1CCCNC(=O)c1ccc2nc(N3CCCCC3)sc2c1 (stereo not given)	1.11	-2.21
COc1ccc(CCNC(=O)c2cc3c(cc2Cl)N2CCCCCC2=NS3(=O)=O)cc1	0.82	-0.03
CN(C)NC(=S)NC(=O)C12CC3CC(CC(C3)C1)C2	0.9	-1.22
O=C(CN1CCCC1)Nc1ccc(OC(F)(F)F)cc1	1.36	-1.71
O=C1CSC(c2ccccc2)N1c1cccnc1 (stereo not given)	0.43	2.17
O=C(O)C1CC=CCC1C(=O)Nc1ccccc1C(=O)N1CCN(c2ccc(F)cc2)CC1 (stereo not given)	1.4	-1.59
O=C(NCCNC(=O)C1CC2CCC1C2)C1CC2CCC1C2 (stereo not given)	0.01	0.99
Cc1ccc(S(=O)(=O)N(CC(=O)O)c2ccc(Cl)c(C(F)(F)F)c2)cc1	0.85	0.02
CC(C)NC(=O)CC1(C(=O)NCc2ccc(Cl)cc2)CCCC1	1.25	-0.06
CN(C)C(=O)Cn1c(SCC(=O)N2CCCc3ccccc32)nc2ccccc21	0.25	-1.05
COC(=O)C1=C(C)NC(=O)CC1c1ccccc1 (stereo not given)	0.24	-0.56
Cc1cc(C)c2c(N)c(C(=O)NN)sc2n1	1.59	0.13
NC(=O)CN1C(=O)/C(=c2\sc3nc(=O)c(Cc4ccccc4)nn3c2=O)c2ccccc21	1.06	-0.77
Cc1cc(C)n(CC(=O)n2nc(C)cc2C)n1	0.06	0.21
COc1cc(NC(=O)CNc2cccc(S(=O)(=O)N3CCCC3)c2)cc(OC)c1	0.28	-0.9
Cn1c(=O)c2c(nc(SCc3ccccc3F)n2C)n(C)c1=O	0.4	0.17

Full records, looked up by structure. Order of screens: KCNQ2 pot, KCNQ2 pot baseline
Results for COC(=O)C1=C(C)NC(=O)CC1c1ccccc1 (stereo not given) : 0.24, -0.56
Results for O=C1CSC(c2ccccc2)N1c1cccnc1 (stereo not given) : 0.43, 2.17

Following part
SMILES	KCNQ2 pot	KCNQ2 pot baseline
O=C(Cc1ccccc1)Nc1c2c(nn1-c1cccc(Cl)c1)CS(=O)(=O)C2	2.49	0.77
CCSc1nnc(NC(=O)NCC(F)(F)F)s1	0.07	-1.64
Cc1ccc(C(=O)Nc2cccnc2)cc1[N+](=O)[O-]	3.48	0.86
CCOc1ccc(CCNC(=O)c2cccc(C#N)c2)cc1OCC	1.25	0.01
CCN(Cc1cc(=O)[nH]c2ccccc12)C(=O)C(C)C	3.6	-0.43
Cc1sc2nc(SCC(=O)NCCOCCO)n(C)c(=O)c2c1C	1.3	-0.14
CC(C)CN(CCNC(=O)CN1N=C(c2ccc(Cl)cc2)CCC1=O)CC(C)C	1.14	-0.29
COc1cc(/C=C2/N=C(c3ccccc3)OC2=O)c(F)cc1OCc1ccccc1	0.36	-0.06
Cc1ncc(CO)c(/C=N/NC(=O)c2ccc(O)cc2)c1O	0.34	-0.05
CCC(C)[C@H]1COCCS(=O)(=O)N1Cc1ccccc1F (stereo not given in full)	1.58	1.85
CC1=C(C(=O)OC2CCCCC2)C(c2cccnc2)n2ncnc2N1 (stereo not given)	1.06	-0.8
OC(CNCCNc1ncccc1C(F)(F)F)COc1ccc(F)cc1 (stereo not given)	0.79	1.12
O=C1NCCN(Cc2c(F)cccc2Cl)C1CC(=O)N1CCCO1 (stereo not given)	0.56	0.55
COc1ccc(CN(C(=O)c2oc3ccc(F)cc3c2C)C2CCS(=O)(=O)C2)cc1 (stereo not given)	0.11	-0.21
COc1ccc(NC(=O)Cn2nc(C(=O)O)c3ccccc3c2=O)cc1OC	2.01	0.66
O=C1CCN(S(=O)(=O)c2ccccc2)CCN1CCOCc1cccc(F)c1	1.21	0.22
CN(C)c1ccc(CNC(=O)CN(C)S(=O)(=O)c2ccc3c(c2)c(=O)n(C)c(=O)n3C)cc1	1.62	-0.8
O=C(Nc1cccc(Cl)c1)Nc1cnccn1	1.54	-0.03
NC(=O)N/N=C\c1cc(Br)ccc1O	0.42	0
COc1cccc(N2C(=O)C(Cc3c[nH]c4ccccc34)NC2=S)c1 (stereo not given)	0.03	-1.25
CN(C)S(=O)(=O)c1ccc(C(=O)Oc2ccccc2)cc1	1.04	-0.83
CCCCCCN1C(=O)C(O)=C(C(C)=O)C1c1ccc(Cl)cc1 (stereo not given)	0.33	0.21
Cc1cc(C)c2ccc(C)[n+]([O-])c2c1O	0.03	-0.75
Cc1ccc(-c2nnn(CC(=O)NCC3COCCO3)n2)o1 (stereo not given)	0.9	-0.23
Cc1cccc(C(=O)NC(=S)N2CCN(c3ccc([N+](=O)[O-])cc3)CC2)c1	0.15	-0.65
Nc1nc(SCc2ccc(F)cc2)ns1	0.44	0.97
CN(C(=O)c1ccc(OC2CCN(CCc3ccccc3)CC2)cc1)C1CCCCC1	0.09	2.67
CCC(=O)Nc1cccc(-n2nnnc2SCC(=O)N2CCCCC2)c1	0.53	1.75
CCOc1cc(/C=N/O)cc(Br)c1OCc1ccc(Cl)cc1	1.66	-1.36
CN(CC(=O)Nc1c(Cl)cccc1Cl)C(=O)C1=COCCO1	1.11	0.54
COc1ccccc1-c1cc(C(=O)NCCCn2ccnc2)no1	1.24	-0.28
COc1ccc(S(=O)(=O)N2CCN(C(=O)C3CCC3)CC2)cc1	0.67	-1.61
Cc1cc(CNC(=O)C2CCC(=O)N(Cc3ccccc3F)C2)on1 (stereo not given)	0.84	-0.78
CCN(C(=O)COC(=O)CCCN1C(=O)c2cccc3cccc(c23)C1=O)C1CCS(=O)(=O)C1 (stereo not given)	0.05	-0.01
CC(C)Cn1cnc2sc3c(c2c1=N)CCCC3	0.78	0.39
COc1ccc(N2CCN(c3ncnc4c3[nH]c3ccccc34)CC2)cc1	1.93	1.09
COc1ccc(OC)c(C(=O)NC(CC(N)=O)c2ccc(N3CCN(c4ccccc4)CC3)c([N+](=O)[O-])c2)c1 (stereo not given)	0.09	0.05
O=C(NCCCCCCNC(=O)c1cncc(O)c1)c1cncc(O)c1	0.79	1.62
O=C(Cn1c(=O)sc2ccccc21)Nc1ccccc1	0.01	2.04
COc1cc(Cl)cc(/C=N/NC(N)=O)c1O	0.08	0
CO/N=C(\Cn1ncc(N2CCCC2)c(Cl)c1=O)c1ccc(Cl)cc1	0.22	-1.07
CCCOc1ccc2ccccc2c1/C=N/n1c(C)nnc1-n1nc(C)cc1C	0.27	0.1
CCOc1cc(C(N)=O)cc(Br)c1OCC	0.22	-1.21
O=C(Cc1cccc(C(F)(F)F)c1)Nc1cccc(S(=O)(=O)N2CCCC2)c1	1.94	-0.27
CN1CCOCCOCCN(C)C1=O	2.76	-1.43
CCOc1ccc(S(=O)(=O)N(CC)CC(=O)NC2CC2)cc1	0.32	0.95
C=CCn1c(SCc2nc(N)nc(N(C)C)n2)nnc1-c1cccnc1	0.73	-0.38
CCn1cc(C(=O)NCCCOC(C)C)c(=O)c2cc(S(=O)(=O)N3CCOCC3)ccc21	1	-0.58
CCOC(=O)N/N=C/c1ccc(N2CCOCC2)s1	1.2	0.2
Cc1cccc(C)c1N(CC(=O)N1CCCC1)S(C)(=O)=O	1.51	0.15
O=C(Nc1ccc(Oc2ccc(C(F)(F)F)cn2)c(Cl)c1)C1CC1	0.62	-0.97
O=C(NCCCn1ccnc1)c1cc(C(=O)C2CC2)c[nH]1	0.67	2.15
CCOC(=O)N1CCC(N(CCN(C)C)C(=S)Nc2ccccc2OC)CC1	0.8	0.65
Cc1cc(=O)[nH]c(N2CCN(C(c3ccccc3)c3ccccc3)CC2)n1	0.48	0.01
O=C(Nc1ccc(/C=C/c2nc3ccccc3o2)cc1)c1ccc(F)cc1	1.23	1.99
O=C(Cn1c(=O)oc2ccc(Cl)cc21)NC1CCCCC1	1.1	0.01
COc1cccc(N(C(=O)c2cccs2)c2nc3ccccc3s2)c1	0.2	-0.08
O=C(CSc1nnc(-c2ccco2)o1)NC1CC2CCC1C2 (stereo not given)	0.96	-1.01
CC(C)[C@H](NC(N)=O)C(=O)NCCc1ccc(Cl)cc1	0.16	-0.95
CSc1ccccc1NC(=O)c1cnc2n(c1=O)CCS2	0.07	0.43

A second format for some results above.
> O=C(Nc1ccc(/C=C/c2nc3ccccc3o2)cc1)c1ccc(F)cc1
  KCNQ2 pot = 1.23
  KCNQ2 pot baseline = 1.99

> O=C(Cn1c(=O)oc2ccc(Cl)cc21)NC1CCCCC1
  KCNQ2 pot = 1.1
  KCNQ2 pot baseline = 0.01

> COc1cccc(N(C(=O)c2cccs2)c2nc3ccccc3s2)c1
  KCNQ2 pot = 0.2
  KCNQ2 pot baseline = -0.08

> O=C(CSc1nnc(-c2ccco2)o1)NC1CC2CCC1C2 (stereo not given)
  KCNQ2 pot = 0.96
  KCNQ2 pot baseline = -1.01

The list goes on.
SMILES	KCNQ2 pot	KCNQ2 pot baseline
Cc1ccccc1OCC(=O)N/N=C1\SCC(=O)N1Cc1ccccc1	1.41	0.18
C#CCOCCOCCOCCNc1nc(N2CCN(C(=O)[C@H](CCC(=O)O)n3cc(C(N)CC(C)C)nn3)CC2)nc(N2CCN(C(=O)[C@H](CCC(=O)O)n3cc(C(N)[C@H](C)CC)nn3)CC2)n1 (stereo not given in full)	1.68	0.22
CCC(C)NC(=S)N1CCN(Cc2ccc3c(c2)OCO3)CC1 (stereo not given)	0.33	1.83
COc1ccc(-c2nc3c(c(=O)[nH]c(=O)n3Cc3ccccc3)n2Cc2ccccc2)cc1	2.18	0.77
CCOC(=O)N1CCC(NC(=O)C(NS(=O)(=O)c2ccc3c(c2)CCN3C(=O)CC)C(C)C)CC1 (stereo not given)	1.59	-1.24
COc1ccc(N=Nc2[nH]c3ccc(C)cc3c2O)cc1	0.41	0.05
Cc1ccccc1CN1C(=O)[C@H]2Cc3c([nH]c4ccccc34)C(C)(C)N2C1=O	0.87	2.21
Cc1ccccc1NC(=S)/C(=C(\[O-])c1ccc(C)c([N+](=O)[O-])c1)[n+]1ccccc1	1.62	-4.04
CCCCn1c(N)c(N(CC(C)C)C(=O)c2cc(-c3ccc(OC)c(OC)c3)nc3ccccc23)c(=O)[nH]c1=O	1.57	0.89
Cn1c(SCC(=O)N2CCOCC2)nnc1-c1cccc(NC(=O)c2ccccc2F)c1	1.16	0.36
CC(=O)NS(=O)(=O)c1ccc(NC(=S)NC(=O)c2ccco2)cc1	0.49	-0.77
CCOC(=O)/C(C#N)=C/c1cc(C)n(-c2ccc(Br)cc2)c1C	0.05	-0.04
CCCc1cc(C(=O)NCc2cccs2)no1	0.84	2.5
CCOc1ccc(NS(=O)(=O)c2cc(C(=O)N(CC)CC(=O)NCc3cccs3)ccc2C)cc1	0.49	-0.16
O=C(Nc1ccc(C(=O)N2CCOCC2)cc1)Nc1ccc(Cl)cc1Cl	0.54	-0.19
CCN(CC)CC#CC(C)(C)OC(C)=O	0.07	-0.18
CCC(Sc1nc2n[nH]c(C)c2c(=N)n1-c1ccc(C)c(Cl)c1)C(=O)N1CCOCC1 (stereo not given)	1.66	-0.06
N#Cc1c(NC(=O)CN2CCN(C(=O)c3ccco3)CC2)sc2c1CCCCC2	0.69	0.79
COc1ccc(C2=NCCc3cc(OC)c(OC)cc32)cc1OC	0.88	0.71
COc1ccc(NC(=O)c2ccc(NC(=O)c3ccco3)cc2)c(OC)c1	2.25	-1.68
COc1ccc(CS(=O)(=O)/C(Cl)=C(/Cl)C(=O)Nc2ccc(OC)nc2)cc1	3.58	-1.89

Some of the compounds tested, so the mix of outcomes need not match the whole.
